Assay outcomes deposited in PubChem BioAssay by National Center for Advancing Translational Sciences (NCATS).
VDR inh: Inhibitors of the vitamin D receptor (VDR): qHTS | Vitamin D3 receptor (Homo sapiens), P11473 | VDR-SRC2-3 peptide fluorescence polarization, 2 h | Potency, µM, inactives show max response, negative = inhibition, most hits filed as inhibitors | 400,000 compounds, 0.93% hits | AID 504847, 2011; active = well fitted inhibition curve with a large enough effect; inconclusive = small, poorly fitted or top-dose-only effect, or another doubt; inactive = no such curve, though single readings can be large or run the other way; also: series mostly up to about 120 µM
Target sequence (P11473 whole entry, looked up): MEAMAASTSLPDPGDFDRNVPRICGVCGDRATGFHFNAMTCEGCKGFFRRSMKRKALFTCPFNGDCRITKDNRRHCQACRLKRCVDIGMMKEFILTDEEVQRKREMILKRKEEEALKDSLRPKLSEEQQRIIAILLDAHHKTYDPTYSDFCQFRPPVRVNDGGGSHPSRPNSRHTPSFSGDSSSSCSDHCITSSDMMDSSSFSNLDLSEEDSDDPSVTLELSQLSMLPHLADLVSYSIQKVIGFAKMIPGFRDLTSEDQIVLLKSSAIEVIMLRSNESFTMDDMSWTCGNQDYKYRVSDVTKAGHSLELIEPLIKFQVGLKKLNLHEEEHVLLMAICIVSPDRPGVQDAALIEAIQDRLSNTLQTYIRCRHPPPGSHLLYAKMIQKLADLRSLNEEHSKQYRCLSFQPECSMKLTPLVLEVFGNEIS
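Signal is fluorescence polarization, reporting how far test compounds block the interaction of VDR with the SRC2-3 coregulator peptide after a 2 h room-temperature incubation.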
The depositor's hits bear a star; ? = inconclusive; & = joins results of further samples; [ ] = another dose, or the depositor's remark. % is scaled to controls: 0 for no effect and ±100 for the full control effect; potency is read from the fitted curve at half-maximal effect.

SMILES	VDR inh
Cc1ccnc(NS(=O)(=O)c2cc([N+](=O)[O-])ccc2C)c1	-6%
O=c1c2ccccc2nc(SCc2cc(F)ccc2F)n1C1CCCC1	-6%
Cc1ccc(-c2nnc(Nc3ccc(O)cc3)c3ccccc23)cc1S(=O)(=O)NCCO	-14%
C=CCn1c(-c2cc(Cl)ccc2OC)n[nH]c1=S	6%
Cc1ccc(-c2n[nH]c(=S)n2/N=C/c2ccc(C(=O)O)cc2)cc1	0%
CCCCC(NS(=O)(=O)c1ccc(OC)cc1)C(=O)O (stereo unspecified)	3%
Cc1c(C(=O)NCc2ccco2)oc2c(F)cccc12	-19%
CC(=O)c1c(C)[nH]c(C(=O)COC(=O)c2cccnc2Cl)c1C	-18%
CC1CCc2c(sc3nc(CN4CCOCC4)nc(NS(=O)(=O)c4cccc([N+](=O)[O-])c4)c23)C1 (stereo unspecified)	-15%
O=C1C[C@H](c2ccc(-c3ccccc3)cc2)N1S(=O)(=O)c1ccccc1[N+](=O)[O-]	-11%
CN(CC(=O)NC(=O)NCc1ccco1)Cc1nc2ccccc2c(=O)[nH]1	3%
Cc1oc2c(cc(NS(=O)(=O)c3ccc(F)cc3)c3ccccc32)c1C(=O)OCc1ccccc1	-2%
COc1cc(/C=C/C(=O)c2ccc(NS(=O)(=O)c3ccc(C)cc3)cc2)ccc1OC(F)F	-25%
O=C(COC(=O)COc1ccc(Br)cc1)NCCC1=CCCCC1	-1%
CC(=O)Nc1nonc1-c1ccccc1	10%
CC(=O)NCCNC(=O)c1ccc(-n2c(C)ccc2C)cc1	-4%
COC(=O)c1nnc(SC)nc1C(=O)OC	-6%
Cc1cc(NC(=O)c2cccs2)no1	2%
CCOC(=O)CSC1=C(C#N)C(c2ccco2)C(C(=O)OCc2ccccc2)=C(C)N1 (stereo unspecified)	44%[activator]
O=C(N/N=C/c1cc(Br)c(O)c(Br)c1)c1cc2c(ccc3ccccc32)o1	-16%
COc1ccc(N/N=C(/N=Nc2nc(C)cc(=O)[nH]2)c2ccccc2)cc1	-12%
O=C(NCCc1csc(-c2ccccc2)n1)c1ccco1	?
CCn1c(-c2ccccc2)c(C(=O)CCl)c2ccccc21	?
COc1cccc(-n2c(CN3CCN(c4cccc(C)c4)C(C)C3)nc3ccc([N+](=O)[O-])cc3c2=O)c1 (stereo unspecified)	-12%
COc1ccc(N2C(=O)N(Cc3ccc(C)cc3)c3ccccc3S2(=O)=O)cc1	-3%

Reformatted with each value named: part of the list above.
SMILES: COc1cccc(-n2c(CN3CCN(c4cccc(C)c4)C(C)C3)nc3ccc([N+](=O)[O-])cc3c2=O)c1 (stereo unspecified)
  VDR inh = -12%
SMILES: COc1ccc(N2C(=O)N(Cc3ccc(C)cc3)c3ccccc3S2(=O)=O)cc1
  VDR inh = -3%

The list continues:
SMILES	VDR inh
Cc1ccc(N2C(=O)C3C(C2=O)N2CCCN2C3c2ccccc2)cc1C (stereo unspecified)	?
CCN(CC)S(=O)(=O)c1ccc(NC(=O)c2ccc(N(C)S(C)(=O)=O)cc2)cc1	24%
CCOc1ccc(NC(=O)C(=O)NCCc2csc3nc(-c4ccccc4F)nn23)cc1	10%
CCCCCCNC(=O)CC(NS(=O)(=O)c1ccc(NC(C)=O)cc1)C(C)C (stereo unspecified)	-8%
Cc1nc2scc(C)n2c(=O)c1S(=O)(=O)N1CCN(c2ccccn2)CC1	-7%
O=S(=O)(c1ccc(OCc2nc3ccccc3s2)c(Cl)c1)N1CCOCC1	-7%
CCC1CCCCN1CCCNC(=O)c1ccc2c(c1)N(Cc1cccc(C)c1)C(=O)c1ccccc1S2(=O)=O (stereo unspecified)	-13%
Cc1nc(-c2ccc(S(=O)(=O)NCc3ccccn3)s2)cs1	-10%
CCOC(=O)c1cccc(NC(=O)c2cnn(-c3ccccc3)c2-n2cccc2)c1	13%
Cc1cc(C(=O)NCC(=O)OCC(=O)N(C)C2CCCCC2)ccc1[N+](=O)[O-]	0%
COc1nccnc1NS(=O)(=O)c1ccc(NC(=S)NC(=O)c2ccccc2)cc1	-33%
COc1ccc(-c2c(C)nc(N)nc2-c2ccc(OCc3ccc(C)cc3)cc2O)cc1OC	3%
CC(Oc1ccc(Br)cc1)C(=O)N(Cc1nc(-c2ccccc2)no1)C(C)C (stereo unspecified)	-6%
COc1ccc(/C=C/C(=O)c2ccc3c4c(cccc24)CC3)cc1OC	-17%
COC(=O)C(Cc1c[nH]c2ccccc12)NC(=O)c1cccc(S(=O)(=O)N2CCCCC2)c1 (stereo unspecified)	-27%
CC(C)Oc1ccc(CCc2nnc(SC(C)C(=O)O)n2-c2ccccc2)cc1 (stereo unspecified)	-10%
Cc1cccc(N2CCN(C(=O)c3ccc4c(c3)N(Cc3ccccc3F)C(=O)c3ccccc3S4=O)CC2C)c1 (stereo unspecified)	-7%
Cc1ccc(C2=NS(=O)(=O)N(C)C(C(=O)N(C)C3CCCCC3)=C2)cc1	-28%
O=C(O)CC1S/C(=N/N=C2CCCCC2)N(c2ccccc2)C1=O (stereo unspecified)	2%
CCOC(=O)N1CCN(c2cc3nccnc3cc2F)CC1	-12%
CCOc1ccc(NC(=O)COC(=O)C2CC2C)cc1 (stereo unspecified)	-3%
Cc1ccc(C(=O)CC2(O)C(=O)N(Cc3ccccc3)c3ccccc32)o1 (stereo unspecified)	1%
COc1ccc(S(=O)(=O)N(C)CC(=O)NCCCn2ccnc2)cc1Cl	2%
CC1(C(=O)N2CCOCC2)CCCCC1	-2%
CC(C)OC(=O)CSc1nc2c(c(C3CC=CCC3)c1C#N)CCC2 (stereo unspecified)	-5%

Overlap with the part before: four entries, then new ones.
SMILES	VDR inh
Cc1ccc(C(=O)CC2(O)C(=O)N(Cc3ccccc3)c3ccccc32)o1 (stereo unspecified)	1%
COc1ccc(S(=O)(=O)N(C)CC(=O)NCCCn2ccnc2)cc1Cl	2%
CC1(C(=O)N2CCOCC2)CCCCC1	-2%
CC(C)OC(=O)CSc1nc2c(c(C3CC=CCC3)c1C#N)CCC2 (stereo unspecified)	-5%
COc1cccc(/C=N/NC(=O)C(=O)N2CCCC2)c1	-2%
COc1ccc(Cl)cc1S(=O)(=O)N(C)CC(=O)NCCCn1ccnc1	-12%
O=C(COC(=O)COc1ccccc1)NC1CCS(=O)(=O)C1 (stereo unspecified)	26%
O=c1c2ccccc2n(Cc2cccc(Cl)c2)c(=O)n1CCc1ccccc1	-6%
CCC(=O)Nc1ccc(C(=O)n2nc(C)cc2C)cc1	-2%
CCOC(=O)c1c(NC(=O)C2C3C=CC(C3)C2(C)C(=O)O)sc2c1CCCC2 (stereo unspecified)	-21%
Cc1cccc(OCc2nnc(SCC(=O)Nc3nccs3)o2)c1	-3%
COc1ccc(N(C(=O)c2cccc(C)c2)S(=O)(=O)c2ccc(Cl)cc2)cc1	1%
CCOC(=O)Cn1c(C)[n+](CC(=O)c2ccccc2)c2ccccc21	1%
CCN1C(=O)c2ccccc2S(=O)c2ccc(C(=O)NCc3ccccc3OC)cc21 (stereo unspecified)	-23%
COc1ccc(-c2cc(C(=O)NCCN3CCOCC3)c3cc(C(C)C)ccc3n2)cc1	-10%
Cc1csc2nc(SCC(=O)N3CCN(c4ccccc4)CC3)[nH]c(=O)c12	-20%
NC(=O)C1CCN(C(=O)COc2cccc3cccnc23)CC1	-5%
COc1cc(OC)c(NC(=O)CC(c2cccs2)N2Cc3ccccc3C2=O)cc1Cl (stereo unspecified)	-9%
COc1ccc(C(=O)NCc2cccnc2)cc1	8%
CN(C)c1cccc(C(=O)N/C=C/n2cnc3cc(C(F)(F)F)ccc32)c1	2%
O=C(/C=C/c1ccccc1)NNC(=O)c1cccnc1	1%
O=C(Cc1ccccc1)NNC(=S)NC(=O)c1cccs1	-9%
COCCn1c(=O)c(-c2cccc(C#N)c2)nc2cnc(N(C)C)nc21	4%
Cc1ccc(NC(=O)CCN2CCN(CCO)CC2)cc1C	39%
Cc1cc(C)nc(NC(=O)c2ccc(Cl)cc2[N+](=O)[O-])c1	10%
CCOC(=O)C[C@H]1c2ccccc2S(=O)(=O)N1Cc1ccc(Cl)cc1	-12%
COc1ccc(NS(=O)(=O)c2ccc(C)c(C(=O)N3CCN(Cc4cc(OC)ccc4OC)CC3)c2)cc1	6%
COc1ncnc2c1N=C1CC(C)(C)CC(N)=C1S2	7%
Cn1cc(Br)c(-c2cccc(NC(=O)CC(C)(C)CC(=O)O)c2)n1	-3%

Three structures out of the list, ordered by molar mass, low to high:
SMILES	VDR inh
COc1ncnc2c1N=C1CC(C)(C)CC(N)=C1S2	7%
NC(=O)C1CCN(C(=O)COc2cccc3cccnc23)CC1	-5%
O=C(COC(=O)COc1ccccc1)NC1CCS(=O)(=O)C1 (stereo unspecified)	26%

Next section.
SMILES	VDR inh
COc1ccccc1NC(=O)C1=C(C)Nc2nc(CCCO)nn2C1c1cccc(O)c1 (stereo unspecified)	-23%
COc1ccc(N2CCN(C(=O)c3ccccc3NS(=O)(=O)c3ccccc3)CC2)cc1	-14%
Cc1ccc2nc(COc3ccc(NC(=O)COc4ccccc4F)cc3)cc(=O)n2c1	5%
CCCn1c(=O)c(C(=O)NCCc2ccccc2)c(O)c2ccccc21	6%
O=C(O)/C=C/C(=O)Nc1ccc(SC(F)(F)C(F)(F)C(F)(F)F)cc1	?
CCOC(=O)c1c(NC(=O)CSc2cn(CCNC(=O)c3ccc(OCC)cc3)c3ccccc23)sc2c1CCC2	-15%
Cn1c(Nn2cnnc2)nc2ccccc21	1%
CC(C)C(=O)Nc1nc(-c2ccc3c(c2)CCN3C(=O)C2CC2)cs1	-2%
CN(Cc1ccccc1)C(=O)c1cccc(NC(=O)Cc2ccc(NC(=O)C3CCN(C(=O)c4ccccc4)CC3)cc2)c1	-5%
CN(C(=O)COC(=O)c1ccc([N+](=O)[O-])cc1)c1ccccc1	-22%
CC(C)C(NC(=O)/C=C/c1cccc([N+](=O)[O-])c1)C(C)C	-12%
O=S(=O)(Nc1ccc(-c2cn3c(n2)SCC3)cc1)c1cccs1	-1%
CCCCNC(=O)C1CCC(CNS(=O)(=O)c2ccc(C)cc2)CC1 (stereo unspecified)	-2%&21%
CCCc1cc(-c2ccc3c(c2)COc2c4ccccc4nn2-3)on1	-6%
COc1ccc(C(=O)Nc2ccc(Cl)cc2C(=O)NCc2ccco2)cc1OC	10%
COC(=O)c1ccc2c(=O)n(CCN3CCOCC3)c(SCC(=O)Nc3ccc(OC)cc3OC)nc2c1	-1%
O=S(=O)(N/N=C\c1cccn1-c1ccccc1)c1ccc2ccccc2c1	28%
O=C(OCC(=O)N1CCCC1=O)c1ncc(Cl)c(Cl)c1Cl	-2%
CC(=O)Nc1ccc(NC(=O)CN(c2ccc(F)cc2)S(=O)(=O)c2ccc3c(c2)OCCO3)cc1	10%
O=C(COC(=O)COc1ccccc1)NC1CCCC1	9%
N#Cc1c(C(F)(F)F)cc(-c2cccs2)nc1SCC(=O)O	-13%
COc1ccc(OCc2ccc(-c3nc(C#N)c(N4CCN(c5ccccc5)CC4)o3)o2)cc1	10%
Cc1c(C(N)=O)sc2nc(-c3ccccc3)cn12	-18%
COc1ccc(-c2ccc(/C=C3/C(=N)N4C=CSC4=NC3=O)o2)c([N+](=O)[O-])c1	-3%
CCN1CCN(c2ccc(S(=O)(=O)N3CCCCC3)cc2NC(=O)c2ccc([N+](=O)[O-])s2)CC1	0%

Continued:
SMILES	VDR inh
Cc1ccc(S(=O)(=O)N2[C@@H](c3ccc(C(C)(C)C)cc3)C(C(=O)O)=CC[C@H]2c2cccc(Cl)c2)cc1	?
CC[C@]12c3[nH]c4cc(-c5ccco5)ccc4c3CCN1C(=O)[C@@H](CC(=O)NCCN1CCOCC1)C[C@@H]2C(=O)N1CCN(C(=O)c2ccco2)CC1	-26%
COc1ccc(-c2nnc(SCC(=O)NCCc3ccc(S(N)(=O)=O)cc3)o2)cc1OC	7%
CS(=O)(=O)C1=NSC2=NC(=O)/C(=C\c3cccn3-c3ccc(Cl)cc3)C(=N)N21	?
COCCN(CC(=O)NCc1ccccc1)C(=O)CCC(=O)Nc1nccs1	-2%
COc1ccc(CNC(=O)c2nc(S(=O)(=O)Cc3ccccc3)ncc2Cl)cc1	?
O=C(COc1ccc(Cl)cc1Cl)N(Cc1ccco1)C1CCS(=O)(=O)C1 (stereo unspecified)	4%
CCOC(=O)c1nn(-c2cccc(C)c2)cc1C(=O)c1ccccc1	-5%
CC(C)(C)OC(=O)[C@H](Cc1ccccc1)NC(=O)c1nc[nH]c1C(=O)NCc1ccccc1	12%
COc1ccc(C(=O)Nc2ccc(C(=O)N3CCCCC3)cc2)cc1OC	-1%
CC(C)(C)C(=O)NCC12C=CC(O1)C1C(=O)N(c3ccccc3)C(=O)C12 (stereo unspecified)	?
CC(O)[C@H]1CNC(=S)N1CCc1cccc(F)c1 (stereo partly specified)	0%
COc1ccc(-c2[nH]ncc2CN(C)Cc2cc(C)[nH]n2)c(F)c1	-12%
COc1ccc(/C=C2\C(=O)NCC(=O)N2Cc2ccccc2)cc1	-4%
O=C(N1CCOCC1)N(Cc1cccs1)C1CCCC1	-5%
O=c1c(/C=N/O)coc2ccc(Cl)cc12	-28%
CCOC(=O)c1c(-c2ccc(C)o2)csc1NC(=O)CSc1nnc(C)s1	-18%
COc1cccc(NC(=O)Cn2c(CCC(=O)O)ccc2-c2ccccc2)c1	10%
Cc1ccccc1NC(=O)c1cccc(S(=O)(=O)Nc2cccc(C(=O)O)c2)c1	10%
O=C(NCc1ccco1)c1cc2nc(-c3cccs3)cc(C(F)(F)F)n2n1	-12%
CC(C)CCOc1ccc(C(=O)C[N+]2(C)CCOCC2)cc1	-5%
CCOC(=O)c1csc(NC(=O)c2ccc(OC)c(OC)c2)n1	19%

Retrieved by structure from the list above (4):
SMILES	VDR inh
COc1ccc(C(=O)Nc2ccc(C(=O)N3CCCCC3)cc2)cc1OC	-1%
CC(C)CCOc1ccc(C(=O)C[N+]2(C)CCOCC2)cc1	-5%
CC(C)(C)OC(=O)[C@H](Cc1ccccc1)NC(=O)c1nc[nH]c1C(=O)NCc1ccccc1	12%
COc1ccc(-c2[nH]ncc2CN(C)Cc2cc(C)[nH]n2)c(F)c1	-12%

Not all compounds are listed; count on the stated rates, not on these rows.
